# Vif TR-FRET: inhibitors of Vif binding to APOBEC3G peptide, primary screen, biochemical, TR-FRET, GST-Vif 1-94, biotin-A3G peptide, dose response retest (AID 1117319); Virion infectivity factor (Human immunodeficiency virus type 1 group M subtype B (isolate …; TR-FRET GST-Vif / biotin-A3G peptide binding; higher % means a stronger effect; test concentration not given here; strong numbers were not always called active; one-dose inhibition, %; IC50 in µM for titrated hits; 260,000 compounds, 0.57% hits;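 active = above the screen mean plus three standard deviations and confirmed in dose response; inconclusive = results disagree or hit not tested in dose response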;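 also: Vif residues 1-94 fused to GST binding biotinylated APOBEC3G peptide 110-148; 0% = full assay without inhibitor and 100% = GST in place of GST-Vif; retest series ran down from 100 µM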
# B2AR ag: beta2AR agonists driving receptor internalization, primary screen, cell-based, FAP fluorogen, flow cytometry; Am2.2-beta2AR cells; reference of the scale not given here; 340,000 compounds, 0.43% hits; Beta-2 adrenergic receptor (Homo sapiens), P07550; AID 504454, 2011; response, % (no concentration beside the values);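 active = response above a set limit, near 3 SD of response in nonfluorescent compounds, cut at about 42% in these data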;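 also: stock transfer was 100 nL into about 11 µL; a reference agonist was the positive control; negative values mostly stem from fluorescent compounds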
# Target sequence (P07550 whole entry, looked up): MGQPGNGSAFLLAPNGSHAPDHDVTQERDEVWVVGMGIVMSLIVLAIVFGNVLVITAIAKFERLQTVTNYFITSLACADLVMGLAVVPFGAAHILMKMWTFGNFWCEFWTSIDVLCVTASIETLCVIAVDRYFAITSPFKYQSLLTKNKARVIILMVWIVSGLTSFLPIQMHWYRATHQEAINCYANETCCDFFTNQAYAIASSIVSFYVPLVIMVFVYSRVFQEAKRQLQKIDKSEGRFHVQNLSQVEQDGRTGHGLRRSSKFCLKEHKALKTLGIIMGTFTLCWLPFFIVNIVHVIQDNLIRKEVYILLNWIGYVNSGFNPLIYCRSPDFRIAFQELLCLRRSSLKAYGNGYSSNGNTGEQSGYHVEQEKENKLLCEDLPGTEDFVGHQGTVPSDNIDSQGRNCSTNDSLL
# HNF4A DNA FP: change in binding of human HNF4A to DNA, primary screen, biochemical, fluorescence polarization, FITC-DNA; 1 h; activity change, % at 10 µM; 360,000 compounds, 0.3% hits; in the data active = activity change above about 30%, passing the limit was not always enough;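 also: controls were the assay level and a saturating level of protein; the project sought stronger binding though the title names inhibitors; some compounds called inactive have numbers as strong as hits; positive values seem to mean higher polarization but the record does not say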
# Target sequence (P41235 whole entry, looked up): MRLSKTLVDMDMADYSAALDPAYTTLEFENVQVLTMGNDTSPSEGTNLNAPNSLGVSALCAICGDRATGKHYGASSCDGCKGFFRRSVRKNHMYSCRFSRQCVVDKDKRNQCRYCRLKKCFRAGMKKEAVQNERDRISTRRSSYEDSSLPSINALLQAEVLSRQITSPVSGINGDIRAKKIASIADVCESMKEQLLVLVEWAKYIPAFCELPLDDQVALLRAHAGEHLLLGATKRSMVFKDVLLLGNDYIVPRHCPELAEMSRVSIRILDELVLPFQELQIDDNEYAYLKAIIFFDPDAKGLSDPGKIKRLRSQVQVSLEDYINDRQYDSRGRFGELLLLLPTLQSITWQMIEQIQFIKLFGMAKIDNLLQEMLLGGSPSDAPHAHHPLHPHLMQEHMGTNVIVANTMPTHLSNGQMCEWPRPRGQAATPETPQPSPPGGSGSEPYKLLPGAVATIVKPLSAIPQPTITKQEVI
# E coli growth: E. coli growth inhibition, primary screen, OD600. Escherichia coli growth, 23 h; active compounds read low. OD600 absorbance (concentration not given with the values). 330,000 compounds, 0.21% hits. AID 1053175, 2014;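 active = OD600 absorbance below the run mean of sample wells minus 3.6 SD, in any replicate, cut at about 0.56 in these data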;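 also: stock transfer was 300 nL into about 60 µL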
# UCH37 inh: inhibitors of human UCH37 deubiquitinase, primary screen, biochemical, Ub-AMC cleavage, fluorescence. 330,000 compounds, 0.33% hits. inhibition, % (concentration not given with the values). AID 588478, 2011. purified proteasome/UCH37. Ubiquitin carboxyl-terminal hydrolase isozyme L5 (Homo sapiens), Q9Y5K5;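 active = mean of two replicates above 20%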;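 also: 0% = compound-free wells with enzyme and 100% = wells lacking proteasome; stock transfer was 100 nL into about 20 µL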
#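 Material: Human UCH37 enzyme supplied as purified proteasome complex | Schedule: 30 min preincubation with enzyme, 25 min cleavage at room temperature | Detection: AMC fluorescence 355/460 nm | Measure: % inhibition of Ub-AMC cleavage fluorescence | Controls: Wells without proteasome as full block, compound-free enzyme plus substrate as uninhibited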
# Bfl-1 A1 inh: caspase 3/7 activation in MEF A1-2A-BIM cells, primary screen, A1 inhibitor project, cell-based, luminescence, HTS. 330,000 compounds, 0.066% hits. Caspase-Glo 3/7 luminescence, 3 h; percent of clofoctol response, vehicle zero. AID 2462, 2010. caspase activation, % (test concentration not listed);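 active = over half of replicate activation scores above 10%, or exactly half above 10 with the replicate mean above 10; inconclusive = replicate mean below 10 yet half the replicates above 10; inactive = over half of replicates below 10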;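 also: wells of about 30 µL received 50 nL stock; many hits fall short of the cut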
# LANA-H2B inh: blockers of LANA interaction with H2A/H2B – biochemical, FP readout, HTS, primary screen. Protein LANA1 (Human herpesvirus 8 type P (isolate GK18)), Q9QR71. cell-free LANA-H2A/H2B peptide, fluorescence polarization. inhibition, % (concentration not given with the values). 320,000 compounds, 0.6% hits. AID 2629, 2010; in the data active = inhibition mostly above about 10%, no sharp cut-off; inactive = mostly below about 6.7%;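 also: stock transfer was 7.5 nL into about 10 µL; 0% = median of vehicle wells and 100% = median of positive control wells; one replicate is shown; the record names a cut of 25% in any replicate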
# * marks the source's active call; other numbers are inactive results; ? = inconclusive; · = not tested or not shown.
SMILES,Vif TR-FRET,B2AR ag,HNF4A DNA FP,E coli growth,UCH37 inh,Bfl-1 A1 inh,LANA-H2B inh
Cc1cccc(NC(=O)C2CCCN(c3nc(C)cc(C)n3)C2)c1 (stereo not drawn),16%,19,-4.3,0.75,-1.1,0.0,1.8
CSc1ncccc1C(=O)Nc1cccc(S(=O)(=O)N2CCCCC2)c1,·,1,4.2,0.68,1.1,0.3,0.5
Nc1ncc(-c2ccccc2)c(-c2ccc(OCc3ccccc3)cc2O)n1,-10%,21,-0.6,0.72,2.9,-0.3,-3.2
C#CCOCCOCCOCCNc1nc(N2CCN(C(=O)[C@H](Cc3ccc(O)cc3)n3cc([C@@H](N)C(C)CC)nn3)CC2)nc(N2CCN(C(=O)[C@H](Cc3cc4ccccc4[nH]3)n3cc([C@@H](N)C(C)CC)nn3)CC2)n1 (stereo partly drawn),·,58*,5.5,·,3.3,0.6,-1.9
CCCCC1(Br)C(=O)N(c2ccccc2)N(c2ccccc2)C1=O,26%,-2,0.8,0.61,0.9,1.3,2.7
CC(C)(C)OC(=O)C[C@H]1C/C=C\C[C@@H](CC(=O)N(CCO)Cc2ccccc2)C(=O)N2CCC[C@H]2COC1=O,·,8,0.5,0.71,3.8,0.2,·
COc1ccc(OC)c(/C=N\NC(=O)c2ccc(-c3ccccc3)cc2)c1,-6%,10,-2.1,·,·,0.5,1.1
S=c1[nH]c(-c2cccs2)cn1-c1ccccc1,·,-9,-2.8,0.65,-31,0.3,-0.2
CC(C)CNC(=O)CCCc1ccccc1,3%,-1,2.2,0.78,4.6,0.8,0.2
Cc1ccc(NC(=O)C2CCN(S(=O)(=O)c3c(C)n[nH]c3C)CC2)nc1,0%,-12,2.1,0.76,3.2,0.9,-7.2
O=C(CNC(=O)c1cccc(-n2cnnn2)c1)Nc1ccc(F)c(F)c1,·,-11,5.3,0.68,2.7,-0.3,0.6
COc1cc(C(=O)NC(=S)NNC(=O)c2ccc3c(c2)OCO3)cc(OC)c1OC,·,2,6.3,0.72,4.5,1.4,2.9
Cn1c(SCC(=O)N/N=C/C=C\c2ccccc2[N+](=O)[O-])nc2ccccc21,12%,3,2.0,·,·,-0.1,-4.4
OCc1n[nH]c(CO)n1,2%,5,-3.5,0.72,2.6,0.6,-0.6
COc1ccccc1CNC(=O)C(CCSC)NC(=O)C1CCC(C)CC1 (stereo not drawn),22%,3,0.3,0.71,5.6,0.9,3.5
CCCc1cc(C(=O)N(C2CCCCC2)C2CCCCC2)no1,?,5,7.4,0.7,1.2,2.0,0.3
O=C(NCCc1nc2ccccc2[nH]1)Nc1ccccc1,0%,2,0.0,0.71,1.0,-1.1,1.3
Cc1c(C2(O)CCCCC2)[nH]c2ccc(C#N)cc12,·,4,0.6,·,·,0.1,-2.9
CCN(CC)CCN(Cc1cc2cc3c(cc2[nH]c1=O)OCO3)C(=S)NCc1ccco1,-4%,-2,-0.9,0.67,-192,-0.1,-0.2
CCOc1ccc(OCC(=O)Nc2c3c(nn2C(C)(C)C)CS(=O)(=O)C3)cc1,·,-4,0.7,0.73,-1.8,-0.3,0.0
O=C(CSc1nc2ccccc2c(=O)n1CC1CCCO1)NCC1CCCO1 (stereo not drawn),-14%,-1,-4.7,0.65,7.3,0.4,0.1
Cc1ccc(C)c(S(=O)(=O)N2CCCOC2CNC(=O)C(=O)NCCc2ccco2)c1 (stereo not drawn),-2%,0,3.8,0.71,1.4,1.2,4.4
CCC(C)NC(=O)CSc1ccc(Cl)cc1 (stereo not drawn),-5%,1,-1.4,0.75,1.4,-0.2,-4.6
CCCC(C)C(=O)Nc1nnc(C)s1 (stereo not drawn),9%,1,0.8,0.67,1.2,0.8,4.0
COCCN(Cc1ccco1)C(=O)Cn1ncc2c(=O)oc3ccccc3c21,-2%,1,4.7,0.72,2.9,0.2,8.0
# New compounds follow.
SMILES,Vif TR-FRET,B2AR ag,HNF4A DNA FP,E coli growth,UCH37 inh,Bfl-1 A1 inh,LANA-H2B inh
Cc1ccc(C(=O)CSc2nc3cccnc3n2C)cc1,7%,2,0.2,0.7,-1.4,0.0,-5.8
CC(=O)c1ccc(OCc2cc(C(=O)N3CCN(C4CCCC4)C(=O)C3)no2)cc1,1%,33,5.0,0.72,0.2,0.4,3.2
Cn1c(SCC(=O)NC2CCCc3ccccc32)nnc1C1CC1 (stereo not drawn),-4%,3,1.6,0.68,0.2,·,·
Clc1cccc(-c2nnc3n2CCCCC3)c1,15%,1,-0.1,0.72,1.5,0.3,·
NCC(O)COCCC12CC3CC(CC(C3)C1)C2 (stereo not drawn),-4%,-2,3.2,0.72,0.7,0.9,-6.9
Cc1nnc(SCC(=O)N2CCN(C(=O)c3ccco3)CC2)n1C,15%,-3,-2.3,0.65,0.6,0.4,3.3
CN1CCN(C(=S)NCCc2ccccc2)CC1,2%,-3,-4.5,0.7,5.1,0.2,5.2
COc1cccc(CNC(=S)NC2CC2)c1,0%,-5,6.4,0.65,4.7,-0.3,1.2
CCOc1ccc(S(=O)(=O)N2CCCCC2)cc1NC(=O)C1CSC2(C)CCC(=O)N12 (stereo not drawn),-3%,4,2.4,0.68,3.0,0.7,-5.2
CCOc1ccc(N2Cc3ccccc3C2)cc1,·,0,4.1,·,·,-0.3,-0.9
CCOC(=O)c1cnc2c(cnn2C)c1NCCCN(C)C,?,4,-0.4,0.67,2.9,0.4,1.8
COc1ccc(CCNC(=O)C(=O)NCC2OCCN2S(=O)(=O)c2ccc(Br)cc2)cc1 (stereo not drawn),·,10,-1.8,0.68,3.4,-0.2,-4.3
CC(C)Cn1c(N)c(C(=O)CSc2ccc3c(c2)OCCO3)c(=O)n(C)c1=O,-3%,4,-0.6,0.71,0.7,-1.6,4.5
Cc1cccc(C)c1NC(=O)CSCC(=O)O,-4%,-2,1.7,0.71,0.8,0.3,1.2
CC(=O)N1c2ccc(S(=O)(=O)N3CCCC3C(=O)Nc3ccc(C)cc3)cc2CC1C (stereo not drawn),·,-17,4.2,0.72,1.4,-0.8,3.9
C=CCNC(=O)c1ccc(N(CC=C)S(C)(=O)=O)cc1,·,-1,1.3,0.73,3.1,0.5,-1.8
O=C(CSc1ccc(-c2ccc(Cl)cc2)nn1)Nc1ccc2c(c1)OCCO2,·,-25,-4.2,0.71,1.6,-0.7,-0.4
O=C(c1ccc(Br)cc1)N1CCN(S(=O)(=O)c2ccccc2)CC1,3%,-3,0.3,0.72,2.8,1.1,-0.9
Oc1ccc2c(c1)oc1cc(O)ccc12,0%,2,-1.0,0.59,-7.2,0.8,0.6
CCOC(=O)C1=C(COC(=O)c2ccccc2OC(F)F)NC(=O)NC1C (stereo not drawn),-10%,0,2.4,0.7,5.4,0.5,-2.5
CCOc1ccc(CN2CCN(CCCn3cccn3)CC2CCO)cc1 (stereo not drawn),20%,-6,4.2,0.65,1.7,0.4,-1.5
CCCOc1ccc(C2C(=O)N(C3CCCCC3)CC(=O)N2CCC)cc1OC (stereo not drawn),27%,-9,5.4,0.74,-0.2,0.1,-1.0
CC(C)OC(=O)c1c(NS(=O)(=O)c2ccccc2)sc2c1CCCC2,10%,13,2.2,0.66,1.8,-0.4,0.8
CN(C)S(=O)(=O)c1cccc(-c2csc(N/N=C/c3ccco3)n2)c1,?,21,6.2,·,·,0.4,7.5
CCOC(=O)C(C)NC(=O)Cn1ncc2c(=O)oc3ccc(C)cc3c21 (stereo not drawn),-5%,-7,-1.5,0.72,4.2,-0.3,2.7

# Quoted at random: 5 records from the list.
SMILES,Vif TR-FRET,B2AR ag,HNF4A DNA FP,E coli growth,UCH37 inh,Bfl-1 A1 inh,LANA-H2B inh
CCCc1cc(C(=O)N(C2CCCCC2)C2CCCCC2)no1,?,5,7.4,0.7,1.2,2.0,0.3
COc1cc(C(=O)NC(=S)NNC(=O)c2ccc3c(c2)OCO3)cc(OC)c1OC,·,2,6.3,0.72,4.5,1.4,2.9
CC(C)OC(=O)c1c(NS(=O)(=O)c2ccccc2)sc2c1CCCC2,10%,13,2.2,0.66,1.8,-0.4,0.8
CCC(C)NC(=O)CSc1ccc(Cl)cc1 (stereo not drawn),-5%,1,-1.4,0.75,1.4,-0.2,-4.6
O=C(CSc1ccc(-c2ccc(Cl)cc2)nn1)Nc1ccc2c(c1)OCCO2,·,-25,-4.2,0.71,1.6,-0.7,-0.4

# The results go on.
SMILES,Vif TR-FRET,B2AR ag,HNF4A DNA FP,E coli growth,UCH37 inh,Bfl-1 A1 inh,LANA-H2B inh
CC(=O)Nc1ccc(N2C(=O)CSC2c2ccc([N+](=O)[O-])cc2)cc1 (stereo not drawn),-2%,8,8.1,0.67,2.6,0.3,-2.3
O=S(=O)(O/N=C1\CCCc2ccccc21)c1ccccc1,6%,0,-4.7,·,·,0.1,0.6
CCC(C)NC(=O)CSc1nnc(-c2ccc(Cl)cc2)n1N (stereo not drawn),28%,0,3.2,0.69,1.3,0.6,2.9
COc1ccc(CNC(=O)C[C@H]2C(=O)N(C3CCCCC3)C[C@@H]2Cc2ccccc2)cc1,·,-8,0.6,·,2.4,0.2,4.5
Cn1c(-c2ccc(F)cc2)cnc1SCC(=O)Nc1ccccc1,·,-4,5.9,0.66,2.0,-0.9,1.8
Cc1sc2nc(CSCC(=O)N3CC(C)OC(C)C3)[nH]c(=O)c2c1C (stereo not drawn),4%,0,4.1,0.69,1.7,·,·
COc1ccccc1N1CCN(C(=O)CSc2nc(N)cc(=O)[nH]2)CC1,12%,-16,0.9,0.72,4.5,0.0,-0.1
O=C(CSc1nc2ccccc2c(=O)n1NC(=O)c1ccccc1)c1ccccc1,71%,-1,4.7,0.7,4.9,-1.2,3.1
Clc1cc(Br)ccc1OCCn1ccnc1,31%,1,-1.1,0.61,3.1,0.6,0.3
COc1cc(C)c(CN2CCC(Cc3ccccc3)CC2)cc1C,·,-1,-4.7,0.67,3.3,?,-2.8
COc1cc(NC(=O)c2cc3ccccc3cc2OC)ccc1NC(=O)c1cccs1,-3%,17,2.2,0.72,-37,-0.4,-1.3
CCCn1c(=O)c2c(nc3n2CCCN3CCc2ccc(OC)c(OC)c2)n(C)c1=O,-5%,12,-4.7,0.67,-0.2,-0.9,-5.5
COc1ccc(CCNc2ncnc3c2nnn3Cc2ccccc2)cc1OC,·,4,-2.7,0.66,1.2,0.4,-0.8
CCc1ccc(C(O)(c2ccccc2OC)C(CN2CCOCC2)c2ccccc2)cc1 (stereo not drawn),·,-4,-0.5,0.74,7.9,-0.4,-1.6
COc1ccc(-c2cc(=O)oc3c(C)c(OCC(=O)N[C@@H](Cc4ccc(O)cc4)C(=O)O)ccc23)cc1,·,1,-0.8,0.77,1.4,0.5,7.2
Cc1ccc(/C=C/C(=O)N2CCc3ccccc32)o1,?,-1,-17,0.66,9.5,-6.0,5.2
N#Cc1c(N)nc2c(c1-c1ccc(Br)s1)CCCC2,23%,5,2.7,0.69,-49,0.8,2.0
COc1ccc(C2(c3ccc(OC)cc3)NC(=O)N(CC(=O)Nc3cc(C)on3)C2=O)cc1,-4%,-2,-1.2,0.71,-1.1,-0.5,-5.2
O=C(O)c1cnn(-c2nc(-c3ccc(Br)cc3)cs2)c1C(F)(F)F,-32%,8,-1.6,0.67,-11,-3.4,-1.1
N#CCCN1CCN(S(=O)(=O)c2ccc(S(=O)(=O)NC3CC3)cc2)CC1,3%,4,-1.8,0.73,0.4,0.3,2.2

# Compound activity from PubChem.
